Assay outcomes from PubChem BioAssay.
MgrA DNA FP – modulators of Staphylococcus aureus MgrA DNA binding; fluorescence polarization; inhibition, %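 (about 10 µg/mL by stock and volumes)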; hit rate 0.13% among 84,000; AID 602314;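 active = above 50% in either of two replicates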;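 note: 0% = protein plus DNA without compound and 100% = DNA alone without protein; higher means less MgrA bound to DNA so lower polarization; one replicate is shown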
Sa helicase inh – S. aureus DNA helicase inhibition; purified S. aureus helicase, fluorescence unwinding assay; about half of the hits fall short of the stated cut; inhibition, %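 (tested at about 80 µM)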; hit rate 0.05% among 120,000; AID 485395;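 active = both duplicates at 50% or more, or one of them with a favoured structure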;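 note: 0% = mean of negative control wells and 100% = mean of positive control wells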
* hit, by the source's call; . = not tested or not shown; & = joins results of further samples.

| Structure | MgrA DNA FP | Sa helicase inh |
| --- | --- | --- |
| CSc1nc2ncc(C(=O)c3ccccc3O)cc2c(=O)[nH]1 | . | 4 |
| S=c1[nH]nc(NCCc2ccccc2)s1 | -4.2 | 18 |
| CCCNC(=O)Nc1ccc(C(F)(F)F)cc1 | 1.1 | 8 |
| c1snnc1C12CC3CC(CC(C3)C1)C2 | -1.1 | -1 |
| CN(C)S(=O)(=O)c1ccc(N2CCC(CNC(=O)Nc3ccccc3)CC2)cc1 | 3.8 | 7 |
| CCc1ccccc1NC(=O)CN1CCC(NC(=O)NC2CCCCC2)CC1 | -1.1 | -3 |
| Cc1occc1-c1nnc(SCc2nnc(-c3ccc(F)cc3)o2)n1C | . | 21 |
| O=P(CCNCc1cccnc1)(c1ccccc1)c1ccccc1 | 1.5 | -12 |
| Cc1[nH]ccc(=O)c1OCC(N)=O | 3.6 | . |
| CO/N=C1\C(C)=C(C#N)C2C1C2(C)C (centres undefined) | . | -10 |
| CCN(CC)c1nc(-c2ccc(OC)c(OC)c2)cc(C(F)(F)F)n1 | . | 9 |
| Cc1ccc(NC(=O)c2c(Cl)nc3sccn23)c(S(=O)(=O)N2CCCCC2)c1 | . | -12 |
| CCCn1c(=C(C#N)C#N)s/c(=C2\C=Cc3ccccc3N2CC)c1=O | 3.4 | 11 |
| Cc1sc(NC(=O)CN2CCCC2)c(C#N)c1C | 0.7 | . |
| CCN(CC)S(=O)(=O)c1cccc(-c2nnc(SC(C)C)n2-c2ccccc2)c1 | . | 3 |
| O=C1CC2CS(=O)(=O)CC2N1c1ccccc1 (centres undefined) | . | 2 |
| COc1ccc(-c2csc(C3=C(O)CN(C(C)C)C3=N)n2)cc1OC | . | 9 |
| Cc1onc(-c2ccccc2)c1C(=O)N1CCCc2ccccc21 | -0.1 | . |
| CCOC(=O)c1oc2ccc(CC/C(C)=N/NC(=O)c3ccc(OC)c(OC)c3)cc2c1C | . | 14 |
| CC(C)N(Cc1c(O)ccc2c(=O)c(-c3ccccc3)coc12)C(C)C | . | 9 |
| O=C(/C=C/c1ccco1)OCC(=O)c1ccc(F)cc1 | . | -7 |
| Cn1nnn(-c2ccccc2)c1=O | . | 15 |
| COc1ccc(/C=C2/SC(=O)N(CCC(=O)Nc3cccc(C)c3)C2=O)cc1OC | -0.8 | . |
| COCCNC(=O)c1ccccc1-c1ccccc1C(=O)O | -1.0 | -5 |
| CCCc1cc(NC(C)c2ccccc2)n2c(nc3ccccc32)c1C#N (centres undefined) | 2.6 | 8 |
| CCN(C(=O)CSc1ncc(-c2ccc(C)cc2)n1C)C1=CCCC1 | . | -4 |
| O=C(COc1ncnc2ccccc12)N(Cc1ccccc1)Cc1ccccc1 | -0.2 | -4 |
| Cc1ccsc1CN(C)C(=O)c1cc(S(C)(=O)=O)ccc1Cl | . | -3 |
| O=C(NCCSc1ccc(Cl)cc1)Nc1ccccc1 | -1.8 | 6 |
| Cc1ccc2nc(-c3ccc(C)o3)c(NC3CCCCC3)n2c1 | . | -37 |

The list continues:
| Structure | MgrA DNA FP | Sa helicase inh |
| --- | --- | --- |
| Cc1ccc(-n2c(C)cc(=O)cc2C)cc1 | . | 10 |
| O=C(NCc1cccnc1)c1ccc2nc(-c3ccco3)c(-c3ccco3)nc2c1 | 15 | 13 |
| CCOC(=O)c1oc2ccc(Br)cc2c1COC(=O)CNC(=O)c1cccc(OC)c1 | . | -7 |
| COc1cc(C(=O)OC2CC3CCC2(C)C3(C)C)ccc1O (centres undefined) | . | 1 |
| CC(C)(C)S(=O)(=O)c1ccccc1C(=O)O | -2.7 | 4 |
| CC1CCc2c(sc3[nH]c(=O)n4nc(-c5cccc(S(=O)(=O)N6CCOCC6)c5)nc4c23)C1 (centres undefined) | . | 2 |
| O=C(O)C1CCCN1C(=O)OCC1c2ccccc2-c2ccccc21 (centres undefined) | -1.1 | . |
| C=CC(=O)N1CCN(C(=O)C=C)CC1 | . | -20 |
| O=C(NCc1ccc(F)cc1)C1CCC(=O)N1CCc1ccccc1 (centres undefined) | . | 2 |
| COc1ccc(NC(=O)C(=S)N2CCCCC2)cc1 | 1.4 | 2 |
| Cc1csc(NC(=O)c2ccccc2)n1 | -2.8&-2.0 | -4&2 |
| O=C(c1ccccc1)c1cc2ccccc2o1 | 0.1 | -1 |
| O=C(N/N=C/c1ccc(C(F)(F)F)cc1)c1ccccn1 | . | 15 |
| CCc1ccc2nc(N3CCC(C(=O)NC4CCCCC4)CC3)sc2c1 | -0.2 | 11 |
| COC(=O)C1=CN(C2CC2)C=C(C(=O)OC)C1c1ccc(Cl)cc1 | . | -32 |
| CC(=O)Nc1ccc(OC(C)=O)cc1 | 0.9 | . |
| COc1cccc(/C=C2\CCCCC2=O)c1 | . | 17 |
| Cn1cc(Cl)c(C(=O)OCC(=O)NCc2ccccc2)n1 | -3.6 | 14 |
| CCC(CC)n1c(COc2ccccc2Cl)nnc1SC(C)C#N (centres undefined) | . | 10 |
| N#Cc1ccccc1S(=O)(=O)Nc1cccc(-c2nnc3n2CCCCC3)c1 | . | 11 |
| CCOC(=O)CNc1ccc(C(=O)O)cc1 | 2.4 | 1 |
| CCOc1ccc(OCC)c(NC(=O)C2COc3ccccc3O2)c1 (centres undefined) | -1.8 | 3 |
| CC1=C(C(=O)OCCc2ccccc2)C(c2coc3ccc(Cl)cc3c2=O)C2=C(CC(C)(C)CC2=O)N1 (centres undefined) | -1.1 | . |
| CN(C)/C=C1\C=C(c2ccccc2)OC1=O | . | 27 |
| CN(Cc1nc2ccccc2c(=O)n1CC(N)=O)C1CCCCC1 | . | 7 |
| CC1=CCC2C(=O)N(c3cccc(C(=O)NCc4ccccc4)c3)C(=O)C2C1 (centres undefined) | 1.9 | 4 |
| COC(=O)COc1ccc(/C=C2\C(=O)NC(=S)N(c3ccc(Cl)cc3)C2=O)cc1OC | 14 | . |
| CCc1ccccc1NC(=O)c1noc2c1CCc1ccccc1-2 | 0.2 | 6 |
| CN(CCCN1C(=O)c2ccccc2C1=O)CCCN1C(=O)c2ccccc2C1=O | 1.0 | 5 |
| Cc1nc2sccn2c(=O)c1S(=O)(=O)NCCCN1CCN(c2ccccc2)CC1 | . | 28 |

3 of the entries above in order of their number in MgrA DNA FP, rising:
| mol | MgrA DNA FP | Sa helicase inh |
| --- | --- | --- |
| O=C(O)C1CCCN1C(=O)OCC1c2ccccc2-c2ccccc21 (centres undefined) | -1.1 | . |
| O=C(c1ccccc1)c1cc2ccccc2o1 | 0.1 | -1 |
| O=P(CCNCc1cccnc1)(c1ccccc1)c1ccccc1 | 1.5 | -12 |

Quoted from the entries so far for reference:
| Structure | MgrA DNA FP | Sa helicase inh |
| --- | --- | --- |
| CSc1nc2ncc(C(=O)c3ccccc3O)cc2c(=O)[nH]1 | . | 4 |
| S=c1[nH]nc(NCCc2ccccc2)s1 | -4.2 | 18 |
| CCCNC(=O)Nc1ccc(C(F)(F)F)cc1 | 1.1 | 8 |

Next compounds follow:
| Structure | MgrA DNA FP | Sa helicase inh |
| --- | --- | --- |
| CCC(C)n1cnc2ccccc21 (centres undefined) | . | -9 |
| COc1cc(-c2nnc(COc3ncnc4c(Cl)cc(Cl)cc34)o2)cc(OC)c1OC | . | -4 |
| CC(=O)c1cnc(N)nc1C | -2.7 | . |
| CCC(=O)Nc1sc2c(c1C(N)=O)CCCC2 | -2.4 | 1 |
| Cc1cccc(-n2nc3c(c2NC(=O)/C=C\c2ccco2)CSC3)c1C | . | -10 |
| CC(C)CCn1c2ccccc2c2ccccc21 | . | 28 |
| N/C(=N\O)c1cccc(CS(=O)(=O)c2cccs2)c1 | -1.5 | . |
| O=C(OCCN1C(=O)c2cccc3c(N4CCOCC4)ccc(c23)C1=O)c1ccc(Br)cc1 | -0.6 | . |
| C=CCn1cnnc1SCC(=O)NCC(F)(F)F | . | -7 |
| O=C(CSc1nc2ccccc2n1-c1ccccc1)NC1CCCC1 | 1.2 | -3 |
| NC(=O)c1ccccc1OCC(=O)N1N=C(c2cccs2)CC1c1cccs1 (centres undefined) | . | 11 |
| C=CS(=O)(=O)c1ccc(C)cc1 | 0.3 | . |
| Brc1ccc(C2C3CC=CC3c3c4c(cc5ccccc35)C3C=CCC3CN42)cc1 (centres undefined) | 0.8 | . |
| CS(=O)(=O)NCC(c1ccc2c(c1)OCO2)N1CCN(c2ccccc2)CC1 (centres undefined) | . | 6 |
| COc1ccc(C2CC(=O)C3=C(C2)Nc2ccccc2NC3c2cccc(C(F)(F)F)c2)cc1 (centres undefined) | 2.6 | . |
| O=C(C1CCCN(Cc2cccs2)C1)N1CCCCCC1 (centres undefined) | . | 0 |
| N#CCC(=O)c1c[nH]c2ccccc12 | . | 10 |
| O=C(c1cn[nH]c1C1CCNCC1)N1CCN(c2ccccc2)CC1 | . | -10 |
| CCn1cc(C2=NOC(C(=O)Nc3cccnc3)C2)c(C)n1 (centres undefined) | . | 8 |
| N#CC1(C#N)[C@H](C(N)=O)[C@H]1c1ccccc1 | . | -9 |
| O=C1CCC(C(=O)O)(c2ccccc2)C1 (centres undefined) | -7.0 | 16 |
| COc1ccc(C(CNC(=O)NCC(c2ccc(OC)cc2)N2CCCCC2)N2CCCCC2)cc1 (centres undefined) | . | 3 |
| Cc1ccccc1-c1nnc(SCC(=O)N2c3ccccc3Sc3ccccc32)o1 | -0.2 | 0 |
| C=CCN1C(=O)/C(=C\c2cn(CCOc3ccccc3OC)c3ccccc23)SC1=S | 8.7 | -7 |
| O=C(COc1ccc2c(c1)C(=O)CC1(CCCCC1)O2)NC1CC1 | . | -4 |
| CC(C)n1nccc1/N=C1\N=C(N)c2ccccc21 | . | 6 |
| COC(CN1C(=O)c2ccccc2C1=O)OC | -0.9 | 12 |
| N#CC(C#N)=C(N)C(C#N)Cc1ccc(C#N)cc1 (centres undefined) | . | -3 |
| O=C(NCc1ccccc1Cl)c1cc2ccccn2n1 | -1.7 | 4 |
| O=C(O)C1CC1C(=O)Nc1ccc(Oc2ccc(F)cc2)nc1 (centres undefined) | 2.2 | . |

Continuation:
| Structure | MgrA DNA FP | Sa helicase inh |
| --- | --- | --- |
| COC(=O)C(C#N)=C1CCCC1 | . | 1 |
| CCOc1ccc(C(c2nnnn2C(C)C)N2CCN(c3cccc(Cl)c3)CC2)cc1 (centres undefined) | -2.1 | 10 |
| Cc1ccc(C)c(N2CCN(c3ncnc4nc[nH]c34)CC2)c1 | . | 5 |
| CC1(C)CC(=O)C2=C(C1)Nc1ccccc1N(C(=O)c1ccccc1)C2c1ccc([N+](=O)[O-])s1 (centres undefined) | 0.1 | . |
| COc1ccc(CCNc2nc(C)nc3c2nnn3Cc2ccccc2)cc1OC | -0.9 | 3 |
| Cc1ccc(-n2c(Cc3cccn3C)nnc2SCC(=O)N2CCN(c3ccccc3)CC2)cc1 | -1.2 | 6 |
| CCOC(=O)c1cnc(SC(C)C(=O)N2CCCc3ccccc32)nc1N (centres undefined) | . | -4 |
| Cc1cccc(C(=O)OCC(=O)NC2CCCCCC2)c1O | 0.4 | 9 |
| O=C(Nc1ccnn1Cc1ccccc1)c1cccnc1SC(F)F | . | -7 |
| CC1CCC2(C)c3[nH]c4ccccc4c3CCN2C1=O (centres undefined) | . | 18 |
| O=C(NC(Cc1ccccc1)C(=O)N1CCCc2ccccc21)c1ccco1 (centres undefined) | . | -5 |
| OC(COc1ccccc1)Cn1cnc2ccccc21 (centres undefined) | 3.9 | -5 |
| NC(N)=NC(N)=Nc1cc(Cl)ccc1Cl | -3.2 | . |
| CC1=NN(c2ccccc2)C(=O)/C1=C\c1ccc(Cl)cc1 | 24 | . |
| COc1ccc(-n2cc(C(=O)N3CCCN(Cc4ccccc4F)C3)c3ccccc3c2=O)cc1 | 0.8 | -4 |
| COc1cc(/C=N/NC(=S)NCC2CCCO2)cc(OC)c1OC (centres undefined) | -2.0 | . |
| Cc1sc2nc(NCCO)[nH]c(=O)c2c1C | . | 8 |
| CN(C)c1nc2ccccc2n2cnnc12 | 0.0 | 10 |
| Fc1ccc(-c2cnc(CSc3nnc(-c4ccccc4)n3-c3ccc(F)cc3)o2)cc1 | . | -11 |
| COC(=O)c1cc2ccccc2s1 | 0.6 | . |
| O=C(CCC(=O)N1CCOc2ccccc21)NCC1CCCO1 (centres undefined) | . | 22 |
| COc1ccccc1NC(=O)[C@H](Cc1ccccc1)NC(=O)c1ccco1 | . | 5 |
| Cc1cccc(NC(=O)CN2C(=S)NC(C)(C)CC2C)c1C (centres undefined) | . | -18 |
| Nc1ccccc1SC1CC(=O)N(c2ccc3c(c2)OCCO3)C1=O (centres undefined) | -1.8 | . |
| Cc1cc(C)c2c(CC(=O)N(C)C)coc2c1 | 2.5 | -13 |
| COC(=O)C(CC(=O)Nc1cc(C)ccc1C)Nc1ccccc1OC (centres undefined) | . | 17 |
| Cc1ccc2nc3n(c(=O)c2c1)CCCc1nn(-c2nc(C)cc(C)n2)c(N)c1-3 | . | 22 |
| O=C1C[C@H](N2C(=O)CCC2=O)C2CO[C@@H]1O2 | -0.8 | 14 |
| COc1ccc2cc(C(C)C(=O)NCc3ccccc3)ccc2c1 (centres undefined) | -0.5 | . |
| Cc1onc(-c2c(Cl)cccc2Cl)c1NC(=O)NN(C)C | 0.0 | . |

Record cards, from the list above. Values in the order: MgrA DNA FP | Sa helicase inh
CCCc1cc(NC(C)c2ccccc2)n2c(nc3ccccc32)c1C#N (centres undefined) in the list: 2.6 | 8
Cc1ccc(NC(=O)c2c(Cl)nc3sccn23)c(S(=O)(=O)N2CCCCC2)c1 in the list: . | -12
Cc1ccc2nc3n(c(=O)c2c1)CCCc1nn(-c2nc(C)cc(C)n2)c(N)c1-3 in the list: . | 22
Cn1nnn(-c2ccccc2)c1=O in the list: . | 15
Cc1occc1-c1nnc(SCc2nnc(-c3ccc(F)cc3)o2)n1C in the list: . | 21

The listing continues:
| Structure | MgrA DNA FP | Sa helicase inh |
| --- | --- | --- |
| O=C(Nc1ccccc1)C(c1ccccc1)c1ccccc1 | -2.0 | -2 |
| COc1ccc(/C=C2\Oc3cc(OC(=O)c4ccc(F)cc4)ccc3C2=O)cc1 | 3.7 | 5 |
| CN(/C=C1\CCCCC1=O)C1CCCCC1 | . | -10 |
| CCCCn1c(SCC)nc2sc3c(c2c1=O)CCCC3 | 2.0 | 9 |
| C#CCn1c(Cc2ccccc2)nc2ccccc21 | . | 20 |

Some of the compounds tested, so the mix of outcomes need not match the whole.
